HNF4A DNA FP – change in binding of human HNF4 alpha to DNA; 360,000 compounds, 0.3% hits; AID 1224865; HNF4a-FITC DNA binding, fluorescence polarization, 1 h; P41235; activity change, % at 10 µM; in the data active = activity change above about 30%, passing the limit was not always enough;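 note: controls were the assay level and a saturating level of protein; the project sought stronger binding though the title names inhibitors; some compounds called inactive have numbers as strong as hits; positive values seem to mean higher polarization but the record does not say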
Beta2AR agonist – activates human beta-2 adrenergic receptor causing internalization; Am2.2-beta2AR cells, FAP receptor internalization, flow cytometry; reference of the scale not given here; response, % (concentration not given with the values); 340,000 compounds, 0.43% hits; AID 504454;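 active = response above a set limit, near 3 SD of response in nonfluorescent compounds, cut at about 42% in these data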;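 note: stock transfer was 100 nL into about 11 µL; a reference agonist was the positive control; negative values mostly stem from fluorescent compounds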
Target sequence (P07550 whole entry, looked up): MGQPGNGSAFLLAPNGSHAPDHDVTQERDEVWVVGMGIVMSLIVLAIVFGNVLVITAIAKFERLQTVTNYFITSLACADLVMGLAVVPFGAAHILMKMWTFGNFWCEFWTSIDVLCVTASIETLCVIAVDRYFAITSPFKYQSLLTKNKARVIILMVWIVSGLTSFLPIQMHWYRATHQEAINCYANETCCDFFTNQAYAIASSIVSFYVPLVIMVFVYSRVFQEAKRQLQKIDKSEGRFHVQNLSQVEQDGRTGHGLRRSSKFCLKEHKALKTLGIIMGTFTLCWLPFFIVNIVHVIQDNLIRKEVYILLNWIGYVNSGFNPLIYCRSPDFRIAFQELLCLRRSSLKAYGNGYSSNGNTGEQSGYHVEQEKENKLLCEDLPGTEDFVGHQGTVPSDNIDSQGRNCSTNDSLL
ALR inh – blocks human ALR sulfhydryl oxidase activity. P55789. purified ALR, DTT oxidation, H2O2 HRP-luminol luminescence. inhibition, % (concentration not given with the values). 290,000 compounds, 3.8% hits;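 active = mean and each replicate at 75% or more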;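 note: stock transfer was 7.5 nL into about 7.5 µL; 0% = neutral wells and 100% = wells with inactivated enzyme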
Target sequence (P55789 whole entry, looked up): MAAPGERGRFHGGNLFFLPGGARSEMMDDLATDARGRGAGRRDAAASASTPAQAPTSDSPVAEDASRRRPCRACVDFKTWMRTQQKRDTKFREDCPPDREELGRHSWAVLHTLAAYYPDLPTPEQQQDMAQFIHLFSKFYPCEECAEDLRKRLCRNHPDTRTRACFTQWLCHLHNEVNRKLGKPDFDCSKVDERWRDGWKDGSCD
Ecoli growth – E. coli growth inhibition; Escherichia coli growth, OD600, 23 h; stronger effect = lower value; OD600 absorbance (test concentration not listed); 330,000 compounds, 0.21% hits; AID 1053175;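 active = OD600 absorbance below the run mean of sample wells minus 3.6 SD, in any replicate, cut at about 0.56 in these data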;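 note: stock transfer was 300 nL into about 60 µL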
LANA-H2A inh – blocks KSHV LANA binding to histone H2A/H2B; Q9QR71; cell-free LANA-H2A/H2B peptide, fluorescence polarization; inhibition, % (concentration not given with the values); 320,000 compounds, 0.6% hits; AID 2629; in the data active = inhibition mostly above about 10%, no sharp cut-off; inactive = mostly below about 6.7%;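 note: stock transfer was 7.5 nL into about 10 µL; 0% = median of vehicle wells and 100% = median of positive control wells; one replicate is shown; the record names a cut of 25% in any replicate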
FGF22 binding – FGF22 (human) thermal shift binding. 340,000 compounds, 1.5% hits. calls only at 9.99 µM. recombinant FGF22 thermal shift, SYPRO orange fluorescence; percent of sucrose octasulfate shift, DMSO zero. Q9HCT0;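 active = melting point raised past a set limit in the mean and every replicate; three in four hits are not shown here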
UCH37 inh – inhibitors of human deubiquitinating enzyme UCH37; 330,000 compounds, 0.33% hits; Q9Y5K5; purified proteasome/UCH37, Ub-AMC cleavage fluorescence; AID 588478; inhibition, % (test concentration not listed);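 active = mean of two replicates above 20%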;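 note: 0% = compound-free wells with enzyme and 100% = wells lacking proteasome; stock transfer was 100 nL into about 20 µL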
Target sequence (Q9Y5K5 whole entry, looked up): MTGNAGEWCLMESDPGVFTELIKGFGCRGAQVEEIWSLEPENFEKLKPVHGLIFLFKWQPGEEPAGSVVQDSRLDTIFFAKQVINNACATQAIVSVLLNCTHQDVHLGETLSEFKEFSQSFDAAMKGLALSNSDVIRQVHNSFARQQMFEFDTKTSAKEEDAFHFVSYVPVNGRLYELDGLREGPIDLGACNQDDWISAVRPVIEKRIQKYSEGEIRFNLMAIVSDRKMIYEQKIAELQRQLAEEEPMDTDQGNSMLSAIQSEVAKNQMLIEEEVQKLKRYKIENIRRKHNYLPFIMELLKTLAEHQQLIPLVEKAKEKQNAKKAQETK
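Material: Human UCH37 enzyme supplied as purified proteasome complex | Schedule: 30 min compound-proteasome preincubation then 25 min substrate reaction, room temperature | Detection: AMC fluorescence from Ub-AMC cleavage, excitation 355 nm, emission 460 nm | Benchmarks: Wells without proteasome as full block, compound-free enzyme plus substrate as uninhibited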
Active calls of the source: *; i = inactive; . = no result given. This is a subset (hit frequency here may not be typical).

SMILES	HNF4A DNA FP	Beta2AR agonist	ALR inh	Ecoli growth	LANA-H2A inh	FGF22 binding	UCH37 inh
O=C(O)C(CCc1ccccc1)N1C(=O)c2ccccc2C1=O (stereo unspecified)	7.4	0	.	0.66	.	i	5.3
O=C1c2ccccc2NC2CCCCCN12 (stereo unspecified)	0.7	-11	1	0.72	3.8	.	-232
CCCC(C(=O)NC1CCCC1)N(Cc1ccc(OC)cc1)C(=O)c1snc(C(N)=O)c1N (stereo unspecified)	1.7	0	.	.	22	i	.
N#Cc1cccc(NC(=O)CSc2ccccc2)c1	-2.7	7	-2	0.62	3.7	.	0.3
CCN(CC)CCCN1C(=O)C(=O)/C(=C(/O)c2ccc(OC)cc2)C1c1ccco1 (stereo unspecified)	-2.5	3	-1	0.67	2.3	i	19
CCOC(=O)c1ccc(NC(=O)c2ccc(CN3CCc4ccccc4C3)cc2)cc1	4.8	8	.	0.68	-0.9	i	-0.5
COC(=O)c1cccc(NC(=O)CSc2nnc(C)n2Cc2ccccc2)c1	3.0	-3	-9	0.66	1.5	.	-3.3
COc1cccc(Nc2nc(CC(C)=O)ns2)c1	-6.4	13	-4	0.73	-1.4	.	1.7
COc1cc(C(=O)NCCNc2nc3c(C)c(C)ccc3cc2C#N)cc(OC)c1OC	1.3	-8	.	0.71	1.8	i	-89
CC1CCCN(C(=O)C2CCN(CC(C)c3ccccc3)CC2)C1 (stereo unspecified)	5.7	1	0	0.71	-3.0	.	0.3
COc1ccc(C)cc1S(=O)(=O)Nc1ccc2c(c1)OCCO2	-0.2	11	0	0.68	-1.6	i	-1.1
CC(C)n1cc(/C=N/NC(=O)COc2cccc3cccnc23)c2ccccc21	-5.7	-2	5	.	-2.2	.	.
Cc1cc(Cc2ccc(N)c(C)c2)ccc1N	2.0	-14	81*	0.68	-2.2	i	1.6
CC(OC(=O)Cc1c(F)cccc1Cl)C(=O)NCCC1=CCCCC1 (stereo unspecified)	1.3	2	.	0.71	4.4	.	3.2
COc1ccc(Cc2nnc(N/N=C/c3ccc(C)o3)[nH]c2=O)cc1	-6.1	1	.	.	0.4	i	.
O=C(c1ccccc1)c1ccccc1N1C(=O)C=CC1=O	0.6	-16	9	0.61	3.4	.	2.4
COCCCNC(NC(=O)c1ccc(Br)cc1)C(Cl)(Cl)Cl (stereo unspecified)	-2.0	7	.	0.7	-1.1	i	7.1
C=CCn1c(SCc2nc3sc(C(=O)O)c(C)c3c(=O)[nH]2)nnc1-c1ccc(C(C)(C)C)cc1	-2.0	2	98*	0.71	-2.7	i	2.4
Cc1cc(C)n(C2CC(=O)N(c3ccc(Cl)c(Cl)c3)C2=O)n1 (stereo unspecified)	-1.8	-8	-2	0.67	2.0	i	1.2
CN(c1ccc(C(=O)NCCSC(C)(C)C)cc1)S(C)(=O)=O	-1.1	-2	0	0.72	-0.5	.	1.1
COC(=O)c1cccc(NS(C)(=O)=O)c1	4.4	-3	-5	0.68	2.1	i	3.0
CN(CC(=O)O/N=C(\N)c1ccc([N+](=O)[O-])cc1)S(=O)(=O)c1ccccc1	-1.1	4	-10	0.73	-3.7	.	1.7
Cn1c(N=Cc2ccc([N+](=O)[O-])cc2)c(N)c(=O)n(C)c1=O	1.2	-9	.	.	.	i	.
COc1cc(CNC(=O)c2cc(C(=O)NCc3cc(OC)cc(OC)c3)n(C)n2)cc(OC)c1	1.4	7	.	0.68	.	i	1.8
COc1ccccc1NC(=O)CCC(=O)N1CC(C)Oc2ccc(C)cc21 (stereo unspecified)	-0.4	-2	-5	0.68	-0.5	i	2.4
CCN1CCCC1CNC(=O)C(=O)NC1CC1 (stereo unspecified)	-12	1	1	0.68	0.8	i	0.1
O=S(=O)(NCC(c1ccco1)N1CCCCC1)c1ccccc1C(F)(F)F (stereo unspecified)	-3.4	2	-9	0.64	-12	i	1.0
Cc1c(NC(=O)COc2cccc(F)c2)c(=O)n(-c2ccccc2)n1C	-0.4	-6	-3	0.7	8.5	i	-2.7
CCCC1(C(=O)OC)NC(c2ccc(OC)c(OC)c2)C2C(=O)N(c3ccc4c(c3)OCO4)C(=O)C21 (stereo unspecified)	-0.5	2	-17	0.7	1.6	.	-0.4
COc1ccc(CCNC(=O)C(C)c2ccc([N+](=O)[O-])cc2)cc1 (stereo unspecified)	2.0	11	.	0.66	0.0	i	3.4
Cc1ccc(NC(=O)CN(C)CC(=O)Nc2cccc(F)c2)cc1S(=O)(=O)N1CCCCCC1	0.4	-6	-30	0.72	0.7	i	-1.4
CCOC(=O)N1N=C(c2ccc(C)cc2)CC1(O)C(F)(F)F (stereo unspecified)	-1.0	7	-1	0.69	4.9	i	0.4
O=C(NNC1=NS(=O)(=O)c2ccccc21)c1ccc(Cl)cc1	-0.7	2	89*	0.69	2.0	i	11
Cc1ccc(Nc2nc(Cl)nc(NC(C)(C)C)n2)cc1	1.9	11	9	0.66	2.8	i	5.4
COc1cccc(OCCc2c(C)n[nH]c2C)c1	0.8	8	-2	0.64	2.0	.	5.5
Cc1ccc(-n2ncc3c2CCCC3NC(=O)c2csnn2)cc1C (stereo unspecified)	-2.2	-4	-2	0.69	1.4	i	4.3
O=C(Nc1ccc(Cl)cc1)Nc1nnc(-c2ccncc2)s1	-13	15	-30	0.63	1.9	.	-13
CC[N+](CC)(CC(=O)Nc1c(C)cccc1C)Cc1ccccc1	1.7	5	1	0.65	-9.4	i	3.0
CCn1c(SCC(=O)Nc2ccc(C(=O)OC)cc2)nnc1-c1cccs1	-4.9	-13	-15	0.74	2.8	.	4.8
COc1ccccc1CNCc1cc(=O)oc2c(C)c(C)ccc12	-7.3	-4	-9	0.62	-5.9	i	0.1
COc1ccc2[nH]c3nc(SCc4nnc(-c5ccccc5)o4)nnc3c2c1	-1.9	1	-17	0.72	-0.3	.	5.7
CC(C(=O)N1CCc2ccccc21)N1CCN(Cc2ccccc2)CC1 (stereo unspecified)	0.3	-9	30	0.66	-2.9	i	0.6
COc1ccc(/C=C/C(=O)OCc2cc(=O)n3c(n2)sc2ccccc23)cc1	6.9	-20	-3	.	-1.4	.	0.0
CCCCn1c(-c2csc3ccccc23)n[nH]c1=S	-3.7	-5	43	0.66	-1.9	.	4.2
CCCS(=O)(=O)c1ccc(COC(=O)c2ccc(NC(C)=O)cc2)cc1	-0.8	3	-7	0.69	0.2	i	6.6

Taken from above:
LANA-H2A inh result of Cc1ccc(Nc2nc(Cl)nc(NC(C)(C)C)n2)cc1 is entered as 2.8
Beta2AR agonist result of COc1ccc2[nH]c3nc(SCc4nnc(-c5ccccc5)o4)nnc3c2c1 is entered as 1

Continued:
SMILES	HNF4A DNA FP	Beta2AR agonist	ALR inh	Ecoli growth	LANA-H2A inh	FGF22 binding	UCH37 inh
CC1CCCCN1c1ncnc2ccccc12 (stereo unspecified)	-2.0	1	-4	0.62	-0.6	.	3.2
C=CCOc1ccc(/C(CC)=N/O)cc1OC	-1.6	7	2	.	2.5	.	.
Cc1cccc(N(CC(=O)NCc2ccco2)C(=O)CCC(=O)Nc2ccccn2)c1C	2.2	-3	.	0.64	-0.2	i	1.2
Cc1ccc(CNC(=O)COC(=O)CN2C(=O)C3CC=CCC3C2=O)cc1 (stereo unspecified)	-0.1	2	.	0.68	-4.2	i	-0.8
CSc1nc(N)nc2c1ncn2CC(=O)N1CCN(c2ccccn2)CC1	-1.9	-2	.	0.67	0.6	i	-2.3
O=C(Nc1ccc(N2CCOCC2)c(Cl)c1)C1CCCCC1	2.6	1	-56	0.71	4.6	.	3.4
COc1ccc(OC)c(NC(=O)[C@H]2CC=CC[C@H]2C(=O)O)c1	0.8	-2	-13	0.71	1.9	.	1.0
CCn1c(SCC(=O)Nc2cccc(NC(=O)c3cccs3)c2)nnc1-c1ccncc1	1.5	-1	-3	0.77	-0.4	.	-0.5
O=C(CS(=O)(=O)c1ccccc1)Nc1ccc(N2CCOCC2)cc1	1.1	-7	70	0.63	-7.7	i	1.2
CC(C)(C)Nc1nc(Oc2ccc(=O)n(-c3ccccc3)n2)nc(N2CCOCC2)n1	-2.6	2	-4	0.7	-0.2	.	0.1
CC(C)OCCCNC(=O)CCCC(=O)Nc1ccc(OCCc2ccccc2)cc1	1.4	0	-1	0.69	-4.8	i	2.2
Cc1nn(-c2cccc(Cl)c2)c(Cl)c1/C=N/NC(=O)c1cccnc1	-1.0	0	-9	.	-6.5	.	.
Cc1cc(C)c(C#N)c(Cl)n1	2.6	-4	3	0.6	-1.7	i	1.4
Cc1cc(O)c(C(=O)/C=C/c2ccccc2)c(=O)o1	2.9	6	8	0.69	-6.2	i	7.4
Cc1ccc(C(=O)N(Nc2nc3ccccc3s2)C(=O)c2ccc(C)cc2)cc1	-1.1	12	-2	0.72	1.1	i	1.6

Whole records, looked up by structure:
O=C(CS(=O)(=O)c1ccccc1)Nc1ccc(N2CCOCC2)cc1 in the list: HNF4A DNA FP: 1.1; Beta2AR agonist: -7; ALR inh: 70; Ecoli growth: 0.63; LANA-H2A inh: -7.7; FGF22 binding: i; UCH37 inh: 1.2
Cc1cccc(N(CC(=O)NCc2ccco2)C(=O)CCC(=O)Nc2ccccn2)c1C in the list: HNF4A DNA FP: 2.2; Beta2AR agonist: -3; ALR inh: .; Ecoli growth: 0.64; LANA-H2A inh: -0.2; FGF22 binding: i; UCH37 inh: 1.2

Further compounds.
SMILES	HNF4A DNA FP	Beta2AR agonist	ALR inh	Ecoli growth	LANA-H2A inh	FGF22 binding	UCH37 inh
O=C1CC(N2CCN(c3ccccn3)CC2)C(=O)N1c1ccc(F)cc1 (stereo unspecified)	3.7	1	-1	0.68	-0.8	.	4.6
CC12CCC(C(=O)Nc3cc(Cl)ccc3Cl)(C/C1=N\O)C2(C)C (stereo unspecified)	2.6	-7	-2	.	3.1	.	.
CCCOc1ccc(/C(O)=C2/C(=O)C(=O)N(CCN(C)C)C2c2ccc(OC)c(OC)c2)cc1 (stereo unspecified)	-1.7	-3	-2	0.73	3.9	.	9.6
N#Cc1cc2c([nH]c1=O)CCCC2	-0.5	-3	-7	0.68	9.1*	i	-241
C/C(CC(=O)Nc1c(C)cc(C)cc1C)=N\NC(=O)c1cnccn1	1.7	3	.	.	1.6	.	.
COc1cc(NS(=O)(=O)c2ccccc2)ccc1-n1nc(C)cc1C	4.3	0	-10	0.74	-1.1	.	0.2
COC(=O)CC1SC(=O)NC1=Nc1ccc(OC)cc1 (stereo unspecified)	-1.2	-1	-7	0.76	-2.8	.	-1.2
Cc1ccc(S(=O)(=O)N2CCN(C(=O)c3cc4c(C)nn(-c5ccccc5)c4s3)CC2)cc1	-0.4	-17	-4	0.72	2.1	.	1.4
CC(=O)Nc1ccc(NC(=O)CCS(=O)(=O)c2ccc3c(c2)oc(=O)n3C)cc1	5.8	9	-11	0.66	-2.7	i	-1.7
O=C(Nc1ccccc1F)C1CCCN1S(=O)(=O)c1cccc2nsnc12 (stereo unspecified)	1.3	5	-3	0.69	-5.7	i	4.8
Cc1cccnc1Nc1nc(-c2ccccc2)cs1	-1.5	0	0	0.64	23*	i	-3.9
O=C(O)CCCC(=O)NNC(=O)c1cccc(Br)c1	-2.9	1	-5	0.71	7.2	i	1.2
Cc1cc(Cl)c(OCCOCCN2CCN(C)CC2)c(Br)c1	-0.6	2	.	0.69	8.5	i	0.9
CN(C(=O)COC(=O)c1ccccc1C(=O)N1CCN(c2ccccc2)CC1)c1ccccc1	-5.7	-9	51	0.74	1.0	i	2.0

2 entries from above, as a markdown table.
| canonical_smiles | HNF4A DNA FP | Beta2AR agonist | ALR inh | Ecoli growth | LANA-H2A inh | FGF22 binding | UCH37 inh |
| --- | --- | --- | --- | --- | --- | --- | --- |
| Cc1cccnc1Nc1nc(-c2ccccc2)cs1 | -1.5 | 0 | 0 | 0.64 | 23* | i | -3.9 |
| O=C(O)CCCC(=O)NNC(=O)c1cccc(Br)c1 | -2.9 | 1 | -5 | 0.71 | 7.2 | i | 1.2 |
